Screens from PubChem BioAssay.
A1 inhib – inhibitors of A1; MEF A1-2A-BIM cells, caspase-Glo luminescence, 3 h; percent of clofoctol signal, DMSO as zero; caspase activation, % (test concentration not listed); 0.51% of 21,000 active; AID 2241;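 active = most replicate scores above 10, or exactly half above 10 with mean activity above 10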;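 also: effector caspase 3 and 7 activity cleaving a DEVD luciferin substrate; 50 nL library stock added to about 30 µL; numbers are from one replicate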
BJeLR viability – lowers viability of BJeLR cells; BJeLR fibroblasts viability, CellTiterGlo ATP luminescence, 48 h; HRASV12, hTERT and SV40 LT/ST transformed; viability loss activity score, % (no concentration beside the values); 0.64% of 30,000 active; AID 2275; in the data active = viability loss activity score above about 50%; about a fifth of its hits are not listed in these tables;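 also: higher score means fewer live cells and less ATP luminescence; stock transfer was 50 or 100 nL into about 30 µL; 0% = vehicle wells and 100% = a reference killing control; one replicate is shown; the record names a cut of 85%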
The depositor's hits bear a star; . = not tested or not shown. Not all compounds are listed; rates above refer to the full screens.

#1 CNC[C@@H]1Oc2c(NC(=O)Nc3cccc4ccccc34)cccc2C(=O)N([C@@H](C)CO)C[C@H]1C
#2 C[C@H]1CN([C@@H](C)CO)C(=O)c2cccc(NC(=O)c3cnccn3)c2O[C@@H]1CN(C)Cc1ccncc1
#3 COc1ccc(-c2csc(N3N=C(C)C(C(c4ccc(Cl)cc4)C(C#N)C(N)=O)C3=O)n2)cc1 (centres undefined)
#4 NC(=O)COc1ccc(Cl)cc1
#5 O=C(COC(=O)c1ccc(Br)cc1)c1ccc(Br)cc1
#6 CCOC(=O)c1ccc(Nc2ncnc3ccccc23)cc1
#7 O=C(/C=c1\[nH]c(=O)/c(=C/c2cccnc2)s1)c1ccc(Cl)cc1
#8 C[C@H]1CN([C@@H](C)CO)C(=O)c2cccc(NC(=O)c3nc4ccccc4s3)c2O[C@H]1CN(C)Cc1ccc(-c2ccccc2)cc1

entry no. | 1 | 2 | 3 | 4 | 5 | 6 | 7 | 8
A1 inhib | . | . | -0.1 | -0.3 | -0.8 | -1.8 | . | .
BJeLR viability | 1.8 | 0.5 | -0.7 | -5.0 | 1.9 | -2.3 | 8.0 | -4.1

#9 CC(C)(C)NC(=O)Oc1ccc(Cl)cc1
#10 C[C@@H]1CN([C@@H](C)CO)C(=O)c2cccc(NS(=O)(=O)c3ccccc3)c2O[C@@H]1CN(C)S(C)(=O)=O
#11 NC(=S)c1cc(-c2ccccc2)c(C(F)(F)F)s1
#12 Cc1noc(C)c1S(=O)(=O)Nc1ccc2c(c1)C(=O)N([C@@H](C)CO)C[C@H](C)[C@H](CN(C)S(=O)(=O)c1cn(C)cn1)O2
#13 CC(C)NC(=O)Nc1ccc2c(c1)C(=O)N([C@@H](C)CO)C[C@@H](C)[C@H](CN(C)Cc1ccccc1)O2
#14 C[C@H](CO)N1C[C@H](C)[C@H](CN(C)Cc2ccc(Oc3ccccc3)cc2)Oc2ccc(NC(=O)CCCN(C)C)cc2C1=O
#15 Cc1ccc(S(=O)(=O)Nc2cccc3c2O[C@H](CN(C)Cc2ccc(C(F)(F)F)cc2)[C@@H](C)CN([C@@H](C)CO)C3=O)cc1
#16 O/N=C/c1ccc(N2CCOCC2)cc1

entry no. | 9 | 10 | 11 | 12 | 13 | 14 | 15 | 16
A1 inhib | -1.0 | . | -0.9 | 0.1 | -0.3 | -0.1 | . | -1.1
BJeLR viability | 2.9 | 1.0 | 0.0 | -5.5 | 1.9 | 0.1 | -1.1 | 0.2

#17 COc1ccc(NC(=O)C(c2ccc(C)cc2)N(C)C(=O)c2ccc(=O)[nH]c2)cc1 (centres undefined)
#18 C[C@H](CO)N1C[C@H](C)[C@@H](CN(C)S(C)(=O)=O)Oc2ccc(NC(=O)CCCCCC(=O)Nc3ccccc3N)cc2C1=O
#19 CC(C)NC(=O)Nc1cccc2c1O[C@@H](CN(C)Cc1ccc(C(=O)O)cc1)[C@@H](C)CN([C@H](C)CO)C2=O
#20 CC(=C/C(=O)O)/C=C/c1ccccc1
#21 CC(=O)N1CN(CCCn2ccnc2)Cc2c1sc1c2CCCC1
#22 CC1(C)CC[C@]2(C(=O)O)CC[C@]3(C)C(=CCC4[C@@]5(C)C[C@@H](O)[C@H](O)[C@](C)(CO)C5CC[C@]43C)[C@@H]2[C@@H]1O (some centres undefined)
#23 C[C@H]1CN([C@@H](C)CO)C(=O)c2cccc(NS(=O)(=O)c3ccccc3)c2O[C@@H]1CN(C)C(=O)Nc1cccc2ccccc12
#24 Cc1c(C(=O)NC2CCCC2)oc2ccc(S(=O)(=O)N(C)C3CCCCC3)cc12

entry no. | 17 | 18 | 19 | 20 | 21 | 22 | 23 | 24
A1 inhib | . | . | . | -1.0 | -1.3 | 0.7 | . | .
BJeLR viability | 2.8 | 0.0 | 2.4 | -1.8 | 3.7 | -7.5 | 3.7 | -2.0

#25 COc1ccc(C2CC(=O)c3c(O)cc(O[C@@H]4O[C@H](CO)[C@@H](OC5OCC(O)(CO)C5O)[C@H](O)[C@H]4O)cc3O2)cc1 (some centres undefined)
#26 Cc1noc(C)c1NC(=O)Nc1cccc2c1O[C@H](CN(C)C)[C@H](C)CN([C@H](C)CO)C2=O
#27 Cc1ccc(-c2nc3sc4nc5ccccc5nc4n3n2)cc1
#28 Cc1nc2ccccc2c(=O)n1/N=C/c1ccsc1
#29 COc1ccc(NC(=O)N(C)C[C@H]2Oc3ccc(NC(=O)CCCN(C)C)cc3C(=O)N([C@H](C)CO)C[C@H]2C)cc1
#30 OC[C@H]1O[C@@H](OCc2ccccc2)[C@H](O)[C@@H](O)[C@@H]1O
#31 C[C@H](CO)N1C[C@H](C)[C@@H](CN(C)S(=O)(=O)c2ccc(F)cc2)Oc2c(NC(=O)Nc3ccc(F)cc3)cccc2C1=O
#32 COc1ccc(CNC(=O)Cn2c3ccccc3c3nc(=O)cc(C)n32)cc1

entry no. | 25 | 26 | 27 | 28 | 29 | 30 | 31 | 32
A1 inhib | -0.1 | . | -1.5 | 0.8 | -0.2 | -0.4 | . | 1.0
BJeLR viability | 3.6 | 1.9 | 1.9 | 3.3 | -1.7 | 0.8 | -0.8 | -2.2

#33 N#Cc1cccc2cccc(Sc3ccccc3)c12
#34 COc1ccc(NC(=O)Nc2cccc3c2O[C@H](CN(C)S(=O)(=O)c2ccc(Cl)cc2)[C@@H](C)CN([C@H](C)CO)C3=O)cc1
#35 COc1ccc(Cn2c(SCc3cccc(C(F)(F)F)c3)nc3ncccc3c2=O)cc1
#36 Cc1cc(C(=O)Nc2cccc3c2O[C@H](CN(C)C(=O)NC2CCCCC2)[C@@H](C)CN([C@H](C)CO)C3=O)n(C)n1
#37 C[C@@H]1CN([C@H](C)CO)C(=O)c2cccc(NC(=O)NC3CCCCC3)c2O[C@@H]1CN(C)C(=O)Nc1ccc(C(F)(F)F)cc1
#38 C[C@H](CO)N1C[C@H](C)[C@@H](CN(C)C)Oc2ccc(NS(=O)(=O)c3ccccc3)cc2C1=O
#39 Cc1ccccc1NC(=O)Cc1ccccc1
#40 Cc1cc(C)c(S(=O)(=O)Nc2cc3c4c(oc3c3ccccc23)CCCC4=O)cc1C

entry no. | 33 | 34 | 35 | 36 | 37 | 38 | 39 | 40
A1 inhib | 0.5 | . | -1.2 | . | . | 0.5 | 0.3 | -0.1
BJeLR viability | 4.8 | 1.3 | 5.3 | 0.4 | -4.1 | 1.5 | -5.1 | -3.4

#41 COc1ccc(S(=O)(=O)N(C)C[C@@H]2Oc3c(NC(=O)C4CC4)cccc3C(=O)N([C@@H](C)CO)C[C@H]2C)cc1
#42 Cn1c(CSCc2ccccc2)c(C#N)c2ccccc21
#43 O=C(NCc1ccc(Cl)cc1)c1sc2ccccc2c1Cl
#44 C[C@@H]1CN([C@@H](C)CO)C(=O)c2cccc(NC(=O)Nc3ccccc3)c2O[C@@H]1CN(C)S(=O)(=O)c1cccs1
#45 COc1ccc(NC(=O)N(C)C[C@H]2Oc3c(NC(=O)C4CCCCC4)cccc3C(=O)N([C@@H](C)CO)C[C@H]2C)cc1
#46 CC(C)NC(=O)Nc1cccc2c1O[C@H](CN(C)S(=O)(=O)c1ccccc1)[C@H](C)CN([C@@H](C)CO)C2=O
#47 COc1ccc(NC(=O)Nc2cccc3c2O[C@H](CN(C)Cc2ccc4c(c2)OCO4)[C@H](C)CN([C@@H](C)CO)C3=O)cc1
#48 Cn1c2ccccc2c2c3c(c4c5ccccc5n(CCC#N)c4c21)CNC3=O

entry no. | 41 | 42 | 43 | 44 | 45 | 46 | 47 | 48
A1 inhib | . | -0.5 | -0.1 | . | . | . | . | 28.0*
BJeLR viability | -1.2 | -6.4 | -0.1 | -5.4 | -0.9 | 3.2 | 1.6 | 21.0

An excerpt from above in order of heavy-atom count, smallest number first:
#39 Cc1ccccc1NC(=O)Cc1ccccc1
#33 N#Cc1cccc2cccc(Sc3ccccc3)c12
#43 O=C(NCc1ccc(Cl)cc1)c1sc2ccccc2c1Cl
#32 COc1ccc(CNC(=O)Cn2c3ccccc3c3nc(=O)cc(C)n32)cc1
#48 Cn1c2ccccc2c2c3c(c4c5ccccc5n(CCC#N)c4c21)CNC3=O
#40 Cc1cc(C)c(S(=O)(=O)Nc2cc3c4c(oc3c3ccccc23)CCCC4=O)cc1C
#38 C[C@H](CO)N1C[C@H](C)[C@@H](CN(C)C)Oc2ccc(NS(=O)(=O)c3ccccc3)cc2C1=O
#46 CC(C)NC(=O)Nc1cccc2c1O[C@H](CN(C)S(=O)(=O)c1ccccc1)[C@H](C)CN([C@@H](C)CO)C2=O
#41 COc1ccc(S(=O)(=O)N(C)C[C@@H]2Oc3c(NC(=O)C4CC4)cccc3C(=O)N([C@@H](C)CO)C[C@H]2C)cc1
#44 C[C@@H]1CN([C@@H](C)CO)C(=O)c2cccc(NC(=O)Nc3ccccc3)c2O[C@@H]1CN(C)S(=O)(=O)c1cccs1

entry no. | 39 | 33 | 43 | 32 | 48 | 40 | 38 | 46 | 41 | 44
A1 inhib | 0.3 | 0.5 | -0.1 | 1.0 | 28.0* | -0.1 | 0.5 | . | . | .
BJeLR viability | -5.1 | 4.8 | -0.1 | -2.2 | 21.0 | -3.4 | 1.5 | 3.2 | -1.2 | -5.4

#36 Cc1cc(C(=O)Nc2cccc3c2O[C@H](CN(C)C(=O)NC2CCCCC2)[C@@H](C)CN([C@H](C)CO)C3=O)n(C)n1
#45 COc1ccc(NC(=O)N(C)C[C@H]2Oc3c(NC(=O)C4CCCCC4)cccc3C(=O)N([C@@H](C)CO)C[C@H]2C)cc1
#31 C[C@H](CO)N1C[C@H](C)[C@@H](CN(C)S(=O)(=O)c2ccc(F)cc2)Oc2c(NC(=O)Nc3ccc(F)cc3)cccc2C1=O
#34 COc1ccc(NC(=O)Nc2cccc3c2O[C@H](CN(C)S(=O)(=O)c2ccc(Cl)cc2)[C@@H](C)CN([C@H](C)CO)C3=O)cc1
#37 C[C@@H]1CN([C@H](C)CO)C(=O)c2cccc(NC(=O)NC3CCCCC3)c2O[C@@H]1CN(C)C(=O)Nc1ccc(C(F)(F)F)cc1

entry no. | 36 | 45 | 31 | 34 | 37
A1 inhib | . | . | . | . | .
BJeLR viability | 0.4 | -0.9 | -0.8 | 1.3 | -4.1

Additional compounds follow.
#49 C/C=C(/C)C(=O)O[C@H]1CC(C)(C)C[C@H]2C3=CCC4[C@@]5(C)CC[C@H](O[C@@H]6O[C@H](C(=O)O)[C@@H](O[C@@H]7O[C@H](CO)[C@H](O)[C@H](O)[C@H]7O[C@@H]7O[C@H](CO)[C@@H](O)[C@H](O)[C@H]7O)[C@H](O)[C@H]6O[C@@H]6O[C@@H](C)[C@H](O)[C@@H](O)[C@H]6O)C(C)(C)C5CC[C@@]4(C)[C@]3(C)[C@@H](OC(C)=O)[C@@H](O)[C@@]12COC(C)=O (some centres undefined)
#50 O=C1N[C@H](C(=O)O)C1Cc1ccccc1 (some centres undefined)
#51 C[C@@H]1CN([C@H](C)CO)C(=O)c2cccc(NC(=O)NC3CCCCC3)c2O[C@@H]1CN(C)S(=O)(=O)c1ccc(Cl)cc1
#52 CCSC1=C(C#N)C(=O)NCS1

entry no. | 49 | 50 | 51 | 52
A1 inhib | 0.8 | 0.5 | . | 0.1
BJeLR viability | 72.5* | 2.0 | 1.3 | 5.6
